Source: PubChem BioAssay (several laboratories)
A1 inh – caspase 3/7 activation in MEF A1-2A-BIM cells, primary screen, A1 inhibitor project, cell-based, luminescence, HTS | Caspase-Glo 3/7 luminescence, 3 h; percent of clofoctol response, vehicle zero | caspase activation, % (test concentration not listed) | actives 0.066% (n = 330,000) | AID 2462, 2010;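 active = over half of replicate activation scores above 10%, or exactly half above 10 with the replicate mean above 10; inconclusive = replicate mean below 10 yet half the replicates above 10; inactive = over half of replicates below 10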;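 also: wells of about 30 µL received 50 nL stock; many hits fall short of the cut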
Beta apoptosis – inhibitors of cytokine-induced beta cell apoptosis, primary screen, luminescence | actives 0.8% (n = 300,000) | INS-1E cytokine-induced death, ATP luminescence, 48 h; percent of positive-control rescue, neutral wells zero | AID 435005, 2010 | protection from apoptosis, % (no concentration beside the values);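 active = all replicates at 75% or more, or half of them and the mean; inconclusive = half reach 75% but not the mean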;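 also: 0% = cytokine-treated negative control wells and 100% = positive control rescue; higher means more ATP so stronger rescue from cytokine killing; wells of about 40 µL received 100 nL stock; the first replicate is given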
UCH37 inh – inhibitors of human UCH37 deubiquitinase, primary screen, biochemical, Ub-AMC cleavage, fluorescence | purified proteasome/UCH37 | inhibition, % (test concentration not listed) | actives 0.33% (n = 330,000) | AID 588478, 2011;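 active = mean of two replicates above 20%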;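 also: 0% = compound-free wells with enzyme and 100% = wells lacking proteasome; stock transfer was 100 nL into about 20 µL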
Target sequence (Q9Y5K5 whole entry, looked up): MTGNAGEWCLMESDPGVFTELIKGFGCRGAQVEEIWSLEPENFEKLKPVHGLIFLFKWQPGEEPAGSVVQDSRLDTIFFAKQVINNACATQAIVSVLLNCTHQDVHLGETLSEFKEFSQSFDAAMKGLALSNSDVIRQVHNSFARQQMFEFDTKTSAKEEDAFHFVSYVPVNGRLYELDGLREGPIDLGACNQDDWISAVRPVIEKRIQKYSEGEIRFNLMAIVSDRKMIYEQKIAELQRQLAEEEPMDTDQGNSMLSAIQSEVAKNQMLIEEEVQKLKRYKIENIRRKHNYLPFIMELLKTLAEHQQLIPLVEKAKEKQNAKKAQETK
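Material: human UCH37 enzyme supplied as purified proteasome complex. Measure: % inhibition of Ub-AMC cleavage fluorescence. Medium: pH 7.4 Tris-HCl (50 mM) with ovalbumin, ATP-MgCl2, DTT. Times: 30 min preincubation with enzyme, 25 min cleavage at room temperature. Detection: AMC fluorescence intensity at 355/460 nm.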
LANA-H2A inh – blockers of LANA interaction with H2A/H2B – biochemical, FP readout, HTS, primary screen; Protein LANA1 (Human herpesvirus 8 type P (isolate GK18)), Q9QR71; cell-free LANA-H2A/H2B peptide, fluorescence polarization; inhibition, % (no concentration beside the values); actives 0.6% (n = 320,000); AID 2629, 2010; in the data active = inhibition mostly above about 10%, no sharp cut-off; inactive = mostly below about 6.7%;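 also: stock transfer was 7.5 nL into about 10 µL; 0% = median of vehicle wells and 100% = median of positive control wells; one replicate is shown; the record names a cut of 25% in any replicate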
RanGTP-Imp inh – inhibitors of RanGTP-importin-beta interaction, primary screen, biochemical, FRET, CFP-Ran, YFP-importin-beta, homogeneous; Ran GTPase (GTP-bound) - importin-beta complex; cell-free CFP-Ran/YFP-importin-beta FRET ratio; inhibition, % (test concentration not listed); actives 1.1% (n = 300,000);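 active = most replicates above 15%; inconclusive = exactly half above 15%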;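 also: 0% = DMSO wells and 100% = Ran loaded with GDP instead of GTP; wells of about 40 µL received 100 nL stock; the first replicate is given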
Beta2AR agonist – beta2AR agonists driving receptor internalization, primary screen, cell-based, FAP fluorogen, flow cytometry; Beta-2 adrenergic receptor (Homo sapiens), P07550; Am2.2-beta2AR cells; reference of the scale not given here; response, % (no concentration beside the values); actives 0.43% (n = 340,000); AID 504454, 2011;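 active = response above a set limit, near 3 SD of response in nonfluorescent compounds, cut at about 42% in these data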;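 also: stock transfer was 100 nL into about 11 µL; a reference agonist was the positive control; negative values mostly stem from fluorescent compounds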
Target sequence (P07550 whole entry, looked up): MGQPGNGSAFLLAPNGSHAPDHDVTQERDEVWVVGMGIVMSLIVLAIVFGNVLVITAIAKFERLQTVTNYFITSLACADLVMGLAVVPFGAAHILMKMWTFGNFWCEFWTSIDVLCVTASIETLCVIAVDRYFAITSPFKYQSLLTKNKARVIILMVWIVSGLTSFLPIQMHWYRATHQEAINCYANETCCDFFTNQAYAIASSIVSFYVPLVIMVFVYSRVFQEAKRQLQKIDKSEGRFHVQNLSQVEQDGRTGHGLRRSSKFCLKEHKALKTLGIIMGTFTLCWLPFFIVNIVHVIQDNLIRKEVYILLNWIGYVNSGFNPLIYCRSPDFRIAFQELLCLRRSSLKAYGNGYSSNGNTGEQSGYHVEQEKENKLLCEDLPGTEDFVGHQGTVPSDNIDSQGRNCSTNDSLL
T cruzi repl – inhibitors of intracellular T. cruzi growth, primary screen, luminescence, NIH3T3 host cells | T. cruzi beta-gal in NIH3T3, 90 h | inhibition, % (test concentration not listed) | actives 1.4% (n = 300,000);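 active = mean inhibition across valid replicates above about 55%, limit read from the data; inconclusive = mean below that limit but half or more replicates reach it; inactive = mean below it, under half of replicates reach it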;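 also: signal also drops with host cell toxicity which is not excluded here; 0% = plate median of DMSO wells and 100% = zero luminescence signal; higher percent means less beta-gal luminescence so fewer parasites; stock transfer was 50 nL into about 50 µL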
Calb FLC – C. albicans growth inhibition with fluconazole, primary screen, CaCi-2 strain, Alamar Blue fluorescence; growth inhibition, % (no concentration beside the values); AID 1979, 2009; actives 0.57% (n = 300,000); C. albicans CaCi-2 (fluconazole-resistant clinical isolate) + fluconazole, 48 h;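 active = most replicates above 75%; inconclusive = exactly half above 75%; inactive = most below 75%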;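 also: all wells also contain fluconazole at 8 µg/ml as a sub-toxic cotreatment; 0% = median of DMSO wells and 100% = median of geldanamycin control wells; wells of about 8 µL received 7.5 nL stock; the first replicate is given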
Starred values were filed as active, the others as inactive; ? = inconclusive; / = not tested or not shown.

SMILES	A1 inh	Beta apoptosis	UCH37 inh	LANA-H2A inh	RanGTP-Imp inh	Beta2AR agonist	T cruzi repl	Calb FLC
O=C(OCC(=O)c1ccccc1Br)c1ccncc1	0.4	-3	3.8	3.5	1.0	-4	1	20
O=C(/C=C/c1cccc([N+](=O)[O-])c1)N(c1ccccn1)c1ccccn1	0.6	-8	2.0	5.1	1.9	-1	-25	2
COc1ccc(NS(=O)(=O)c2ccc(NC(=O)c3ccc(N(C)S(C)(=O)=O)cc3)cc2)cc1	1.3	19	0.6	11	-2.5	1	-13	-2
COc1ccc(NC(=O)CSCC(=O)N(C)CC(=O)Nc2ccc(Cl)c(C(F)(F)F)c2)cc1	-1.1	/	1.0	1.8	2.4	21	10	-1
CCCc1ccc(/C=C2\C(=O)c3ccccc3C(O)=C2C(=O)OCC)cc1	1.4	-4	/	0.8	-12	/	20	59
CCOc1ccc(NS(=O)(=O)c2ccc(OCC(=O)N3CCCC3)cc2)cc1	1.1	/	1.0	-6.6	0.0	9	-4	?
Brc1ccc(OCc2nc3ccccc3[nH]2)cc1	-5.1	/	7.2	3.0	-2.5	-5	3	0
CCOC(=O)c1[nH]c2cc3c(cc2c1NC(=O)CN1CC(C)CC(C)C1)OCO3 (stereo unspecified)	-0.6	-9	-50	0.5	-0.5	0	28	0
O=C(COC(=O)COc1cccc(Br)c1)NCc1ccc2c(c1)OCO2	-0.9	0	0.9	-6.6	/	2	/	/
CCOc1ncccc1C(=O)Nc1ccc2c(c1)OCCO2	0.6	-3	4.3	-4.5	/	-2	/	/
CCN1CCN(c2ccc(S(=O)(=O)N3CCOCC3)cc2NC(=O)CC(C)C)CC1	1.3	-5	-2.9	-1.5	/	5	/	/
COc1cccc(C(=O)NCCS(=O)(=O)N2CCCCCC2)c1	0.4	-5	/	-2.8	3.6	-3	-14	-10
CCCn1nnnc1NC(=O)COc1ccc(Cl)c(C)c1	0.4	-2	-0.2	-5.6	0.4	-1	-1	-3
CCOC(=O)c1cccc(-n2c(C)cc(C=O)c2C)c1	-0.7	-3	3.4	7.4	3.7	-1	15	-4
O=C(NCc1ccc(Cl)cc1)c1cnccn1	-1.2	-4	4.3	-2.9	3.1	-9	-1	30
Cc1ccc(N=C2NC(=O)c3cc([N+](=O)[O-])ccc32)cc1	-0.8	-4	2.9	2.4	-3.3	-8	-8	-15
O=C(NCc1ccc(Cl)cc1)C1CCN(S(=O)(=O)c2cccc3nonc23)CC1	-1.5	7	3.7	-2.5	2.2	-1	-15	4
Cc1ccc(S(=O)(=O)CCC(=O)Nc2nnc(-c3ccc(F)cc3)o2)cc1	-0.7	-14	3.2	3.5	6.0	-3	-28	19
Cc1ccc(NC(=O)CCc2nnc3ccc(NCc4ccco4)nn23)cc1F	-0.2	-5	2.2	-2.1	4.4	2	4	-3
CC1=C(C)CC(C(=O)N2CCN(Cc3ccccc3)CC2)C(C(=O)O)C1 (stereo unspecified)	-0.2	-5	-0.8	-1.5	5.3	3	0	0
COc1ccc(Nc2ncc(C(=O)N3CCN(Cc4ccccc4)CC3)c3ccccc23)cc1	0.7	4	-9.4	-2.2	-2.1	12	31	-11
COC(=O)CN(n1cnnc1)S(=O)(=O)c1ccc(C)cc1	1.5	-1	0.6	1.1	2.1	-5	-9	-6
O=C(O)c1ccc2c(=O)n(Cc3ccccc3)c(SCc3ccc([N+](=O)[O-])cc3)nc2c1	0.7	6	1.6	1.8	-5.4	19	35	41
COc1cccc(NC(=O)C(=O)NCCCn2ccnc2)c1	-1.2	4	-1.0	-3.9	-1.6	-1	-6	1
CCn1nc(C)c(NS(=O)(=O)c2ccccc2)c1C	2.0	-3	2.2	-1.8	-6.7	-2	-17	4
O=C(c1cc(-n2cnnc2)ccc1Cl)N1CCN(c2nc(-c3ccccc3)cs2)CC1	0.1	11	4.3	2.8	-3.2	-2	25	56
O=C1CN(C(=O)CCCc2c[nH]c3ccccc23)c2ccccc2N1	-2.1	-1	-3.9	-2.9	1.1	22	-7	-4
Cc1cc(C)cc(OCC(=O)OCC(=O)NC2CCCC2)c1	0.3	-1	2.3	3.6	/	2	/	/
COc1ccc(C)cc1NC(=O)CSc1nc2ccccc2nc1N1CC(C)OC(C)C1 (stereo unspecified)	0.2	8	-2.8	5.2	5.4	8	4	5
Cc1cc(-c2ccccc2)nc(Oc2cccc(C(F)(F)F)c2)c1S(C)(=O)=O	0.2	6	0.5	-1.4	5.6	26	36	0
Cc1c(N=C2SC(CC(=O)Nc3ccccc3)C(=O)N2CCN2CCOCC2)c(=O)n(-c2ccccc2)n1C (stereo unspecified)	-0.9	-1	-0.6	5.9	?	-5	-1	-1
CC(=O)CS(=O)(=O)c1ccc(Oc2ccc(S(=O)(=O)CC(C)=O)cc2)cc1	0.7	5	4.3	-0.1	-1.1	-1	-12	-4
Cn1nc(CC(=O)NC2CCCCCC2)c2ccccc2c1=O	0.0	6	6.2	-2.2	-2.1	-3	-14	1
CC1CCC(NC(=O)C2CCN(c3cnccn3)CC2)CC1 (stereo unspecified)	0.2	-4	-13	-2.8	-1.5	4	-19	-2
O=C(COC(=O)/C=C/c1cccc(Cl)c1Cl)Nc1ccc2[nH]c(=O)[nH]c2c1	16*	-4	3.7	3.4	/	-2	/	/
O=C(CC1C(=O)NCCN1Cc1ccc(F)cc1)NCCOc1cccnc1 (stereo unspecified)	0.1	1	2.3	-4.1	9.4	-22	-13	4
Cc1ccccc1NC(=O)Cc1nc(COC(=O)c2ccc(NC(N)=O)cc2)cs1	0.7	-14	-2.0	2.8	/	8	/	/
Cc1nn(C)c(C)c1S(=O)(=O)N1CCc2ccccc21	0.0	-1	3.8	4.5	3.8	5	-5	-1
COCCn1c(SCC(=O)NC2CC2)nnc1-c1ccco1	0.7	1	3.0	0.3	-2.5	6	-1	-5
CCOc1cc(C2c3c(oc4ccccc4c3=O)C(=O)N2c2nccs2)ccc1O (stereo unspecified)	0.0	9	/	-4.5	-1.7	-4	-13	10

In a second layout: entries from further up.
| Compound | A1 inh | Beta apoptosis | UCH37 inh | LANA-H2A inh | RanGTP-Imp inh | Beta2AR agonist | T cruzi repl | Calb FLC |
| --- | --- | --- | --- | --- | --- | --- | --- | --- |
| O=C(CC1C(=O)NCCN1Cc1ccc(F)cc1)NCCOc1cccnc1 (stereo unspecified) | 0.1 | 1 | 2.3 | -4.1 | 9.4 | -22 | -13 | 4 |
| Cc1ccccc1NC(=O)Cc1nc(COC(=O)c2ccc(NC(N)=O)cc2)cs1 | 0.7 | -14 | -2.0 | 2.8 | / | 8 | / | / |

The listing continues.
SMILES	A1 inh	Beta apoptosis	UCH37 inh	LANA-H2A inh	RanGTP-Imp inh	Beta2AR agonist	T cruzi repl	Calb FLC
COc1ccc(C2NC(=O)c3ccccc3O2)c(OC)c1OC (stereo unspecified)	-0.1	2	-1.7	-1.0	-3.2	2	-17	-5
Cc1ccc(C(=O)COC(=O)CCC(=O)NC2CCCCC2)cc1C	-0.6	/	2.7	-6.2	-2.4	-7	-2	-9
CSc1ccccc1NC(=O)CN(C)CC(=O)NCc1ccccc1	0.6	-3	0.1	0.1	-2.6	-5	11	-9
COc1ccc(CNC(=O)C/C(C)=N/NC(=O)COc2ccc(Br)cc2)cc1	0.3	3	/	1.2	2.1	-4	-22	-23
COc1ccc(CC(=O)Nc2cccc(C(=O)Nc3ccccc3C(=O)O)c2)cc1OC	-0.3	-10	1.8	-4.3	8.2	-1	-13	4
O=C(CCc1nnc(C2(c3ccc(Cl)cc3)CCC2)o1)N1CCCC1	-0.7	-7	1.9	4.1	4.6	-3	7	4
CC(C)c1cc2cc3ccc(=O)oc3cc2o1	-3.5	6	-53	-1.6	-3.3	-5	-7	-1
COc1cccc(N(C(=O)c2snc(C(N)=O)c2N)C(C(=O)NCC2CCCO2)c2cccs2)c1 (stereo unspecified)	0.7	3	-76	-2.5	1.0	18	6	4
CCOc1nc(N(C)C)nc(-n2nnc(C(C)=O)c2C)n1	-0.7	-1	0.9	-1.4	-2.4	-7	-5	13
CCOC(=O)C[C@H]1c2ccc(C(F)(F)F)cc2S(=O)(=O)N1c1ccccc1	-0.3	2	-1.2	5.4	7.4	-14	-8	2
Cc1ccc(C)c(C(=O)CC2(O)C(=O)N(C)c3ccccc32)c1 (stereo unspecified)	-0.4	-6	3.4	0.4	-3.4	3	-8	45
O=C(Cc1cc(C(=O)O)c2ccccc2n1)Nc1ccccc1	-0.2	/	-24	-2.1	3.3	-1	-16	-9
CCCC1=Nc2cc(C(=O)NCCN3CCCC3)ccc2Sc2ccccc21	0.1	0	-0.2	-2.9	-1.3	3	41	-2
Cc1ccc(N(C(=O)c2csnn2)C(C(=O)NC2CCCCC2)c2cccnc2)cc1C (stereo unspecified)	-0.5	-5	7.1	5.0	7.1	9	15	7
COc1cccc(Cl)c1NC(=O)N1CCN(c2cc(C)nc3ccccc23)CC1	-0.4	7	6.1	-3.4	5.7	12	21	19
O=C(CCCN1CCOCC1)c1ccc2c(c1)OCCO2	0.4	1	-4.7	-0.7	2.5	-6	4	2
COc1ccc(Cl)cc1NC(=O)CN1CCc2ccccc2C1	0.7	-19	2.9	2.2	?	0	14	0
COCc1cc(C)nc(Nc2ccc(C)cc2C)c1C#N	-0.2	2	-18	-14	0.9	5	19	8
Nc1cc(=O)n(Cc2ccccc2)c(=O)n1-c1ccc(F)cc1	-0.3	-6	5.7	1.5	-0.5	-6	-2	4
Brc1ccc(Oc2ncc(CN3CCN(c4ccccc4)CC3)s2)cc1	0.0	4	1.1	7.1	?	3	1	7
CCNc1nc(Cl)nc(N(NC(C)=O)C(C)C)n1	0.0	-5	4.0	-0.3	2.1	-4	3	1
CN(C)CC1CCCCC1OC(=O)c1ccc(Cl)cc1 (stereo unspecified)	1.0	-16	1.2	-0.8	2.2	3	-8	-2
Cc1ccccc1CC1(CO)CCCN(Cc2ccc3c(c2)OCCO3)C1 (stereo unspecified)	0.9	-2	1.1	-0.7	-0.4	1	13	21
Cc1cc(Cl)c(O)c(-n2nc3ccccc3n2)c1	-5.7	-2	2.2	2.6	-0.1	0	-9	6
COc1ccc(/C=C/C(=O)CC(O)(c2ccccc2)C(F)(F)F)cc1 (stereo unspecified)	0.0	1	4.0	-4.5	-2.1	7	11	3
Cc1ccccc1C(=O)Nc1nnc(-c2ccco2)s1	0.5	-3	1.8	6.7	-1.9	-1	-3	-12
O=C(OCc1nnc(-c2ccccc2)o1)c1cc(=O)[nH]c2ccccc12	0.1	-15	-7.4	-12	0.3	-2	-10	5
CSc1nc(C(=O)N2CCCC(N3CCN(c4ccccc4C)CC3)C2)cs1 (stereo unspecified)	1.4	-2	4.0	0.6	-1.5	-3	19	-10
Cc1ccccc1/C=N/N1C(=O)CSC1=S	1.0	2	/	2.4	-1.3	-4	-5	1
COc1cc(CN2CC(=O)N(c3cc(Cl)ccc3C)C2=S)cc(OC)c1OC	-1.0	-1	1.6	-5.2	0.9	13	13	-1
